Assay outcomes deposited in PubChem BioAssay by National Center for Advancing Translational Sciences (NCATS).
PINK1 expr mod – modulators of PINK1 expression; PINK1 immunofluorescence, high-content cytometry, 24 h; 410,000 tested, 0.2% active; Potency, µM (series often up to 76.6 µM), for the others: at the highest dose activation (PINK1 increase), most hits filed as activators; AID 624263; active = well fitted activation curve with a large enough effect; inconclusive = small, poorly fitted or top-dose-only effect; inactive = flat fitted curve, though single readings scatter; cell line not stated here;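 also: potency is read from the fitted curve at half-maximal effect; % of control where 0% means no effect; nearly all actives have a fitted effect of over 65% in size; a mitochondrial uncoupler was the plate control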
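Readout is PINK1 immunofluorescence, quantified alongside mitochondrial, cell and nuclear markers by laser-scanning microplate cytometry. Cells from a stable line were exposed to compound titrations (5 concentrations) for 24 hours, with CCCP controls.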
TRPML1 blocker – blocks the human TRPML1 channel. Q9GZU1. TRPML1-inducible cells, Ca2+ dye fluorescence, FDSS; active compounds read low; inhibition of EC80 agonist-evoked calcium signal. activity change, negative = inhibition, % (concentration not given with the values). 390,000 tested, 0.02% active; in the data active means activity change below about -50%; inconclusive means about -30% to -50%; inactive means above about -30%;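 also: stimulus is agonist 54-4 at its EC80 concentration; % is scaled to controls: 0 for no effect and ±100 for the full control effect; the text of the record puts the active cut at -80%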
Target sequence (Q9GZU1 whole entry, looked up): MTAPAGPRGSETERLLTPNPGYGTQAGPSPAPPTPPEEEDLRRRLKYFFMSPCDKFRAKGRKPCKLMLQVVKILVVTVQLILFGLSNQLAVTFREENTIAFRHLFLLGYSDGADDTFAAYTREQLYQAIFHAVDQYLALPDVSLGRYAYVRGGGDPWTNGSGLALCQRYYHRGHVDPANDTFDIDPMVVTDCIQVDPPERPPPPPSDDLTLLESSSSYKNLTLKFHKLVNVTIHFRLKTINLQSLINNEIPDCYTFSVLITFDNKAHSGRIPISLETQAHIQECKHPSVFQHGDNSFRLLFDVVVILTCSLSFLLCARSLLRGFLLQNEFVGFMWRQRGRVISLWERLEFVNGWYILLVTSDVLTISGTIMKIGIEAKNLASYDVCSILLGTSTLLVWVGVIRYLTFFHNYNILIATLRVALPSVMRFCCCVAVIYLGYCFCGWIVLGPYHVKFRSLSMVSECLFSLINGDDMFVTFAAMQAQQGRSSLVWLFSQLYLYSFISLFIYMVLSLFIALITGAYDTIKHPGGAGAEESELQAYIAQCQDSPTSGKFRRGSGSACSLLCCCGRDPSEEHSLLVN
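Tet-induced TRPML1-DL cells loaded with Ca8 no-wash calcium dye were read kinetically on FDSS. Compound addition was followed by EC80 agonist 54-4 (4 uM final); inhibition was read over 110 s.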
Six1-Eya2 blk – blocks human Six1 binding to Eya2; AlphaScreen GST-Six1/His-Eya2 binding, biochemical; active compounds read low; control for the full effect not named in the record; Q15475+O00167; 360,000 tested, 0.56% active; activity change, % (test concentration not listed); in the data active = activity change below about -65%; inconclusive = about -30% to -65%; inactive = above about -30%; also: % is scaled to controls: 0 for no effect and ±100 for the full control effect
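GST-Six1 + His-Eya2 (5X stock: 250/500 nM); Tris pH 8.0, 300 mM NaCl, 0.05% BSA, 0.02% Tween 20; GSH donor/Ni acceptor beads; 1 h 37 °C dark; AlphaScreen readout.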
D2 ag – human D2 receptor agonism in beta-arrestin assay; DiscoveRx PathHunter D2 beta-arrestin, luminescence, 90 min; 100% = 57 uM dopamine signal; AID 624465; P14416; 360,000 tested, 0.084% active; activation, % (concentration not given with the values); in the data active = activation above about 40%; inconclusive = about 15% to 40%; inactive = below about 15%; also: compound concentration not given in the record; the text of the record calls up to 30% inactive
Target sequence (P14416 whole entry, looked up): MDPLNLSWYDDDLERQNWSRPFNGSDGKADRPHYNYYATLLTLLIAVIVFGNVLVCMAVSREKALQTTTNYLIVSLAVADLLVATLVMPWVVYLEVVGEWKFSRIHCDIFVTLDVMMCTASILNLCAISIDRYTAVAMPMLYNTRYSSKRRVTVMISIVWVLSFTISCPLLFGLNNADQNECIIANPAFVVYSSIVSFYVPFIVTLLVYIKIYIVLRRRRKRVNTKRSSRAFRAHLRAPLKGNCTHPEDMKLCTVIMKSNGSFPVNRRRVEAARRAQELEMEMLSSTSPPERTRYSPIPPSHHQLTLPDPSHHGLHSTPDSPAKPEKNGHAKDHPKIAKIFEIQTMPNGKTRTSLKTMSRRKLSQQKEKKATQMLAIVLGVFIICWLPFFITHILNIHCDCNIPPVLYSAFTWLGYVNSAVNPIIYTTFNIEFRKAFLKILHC
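Agonist mode: compounds alone added to overnight-plated D2 PathHunter cells for 90 min at 37 C, with 57 uM final dopamine (EC100) defining full response. Beta-arrestin recruitment detected by chemiluminescent reagent, read after 1 h at ambient temperature.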
D2 potentiator – positive allosteric modulators of human D2 dopamine receptor; P14416; DiscoveRx D2 beta-arrestin cells, luminescence, 90 min; 100% = 57 uM dopamine signal; potentiation, % (no concentration beside the values); 360,000 tested, 0.23% active; AID 624464; active = potentiation of 50% or more; inconclusive = 30% to 50%; inactive = 30% or less;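 also: compound concentration not given in the record; tested on top of an EC20 dose of dopamine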
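PathHunter beta-arrestin assay in DiscoveRx D2 cells. Compounds were added with an EC20 of dopamine (50 nM final) for 90 min at 37 deg C. Luminescence was read 1 h after detection reagent, with 57 uM dopamine as the EC100 control.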
TRPML1 ag – activates the human TRPML1 channel; 410,000 tested, 0.12% active; Q9GZU1; TRPML1-expressing cells, Ca2+ dye fluorescence, FDSS; host cell line not named in the record; reference of the full effect not given here; AID 624414; activation, % (concentration not given with the values); in the data active = activation above about 50%; inconclusive = about 30% to 50%; inactive = below about 30%; also: 0% is about no effect; the text of the record puts the active cut at 80%
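Calcium fluorescence on an FDSS kinetic reader gave the read-out. Tet-induced TRPML1-DL cells were plated overnight, dye-loaded (Ca8 with quencher, 45-90 min, room temperature, dark), then read 110 s after compound addition, and again 110 s after 4uM final 54-4 (EC80).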
* hit, by the source's call; ? = inconclusive; · = not tested or not shown; & = joins results of further samples; [ ] = remark or other dose.

SMILES	PINK1 expr mod	TRPML1 blocker	Six1-Eya2 blk	D2 ag	D2 potentiator	TRPML1 ag
CC(C)NC(=O)c1sc2nc(-c3cccs3)cc(-c3cccs3)c2c1N	-4.8%	-12	7	-23	0	-0.8
Cc1cc(C)n(-c2ccc(C(=O)Nc3cccc(S(=O)(=O)N(C)C)c3)cc2)n1	0.8%	-9	?	4.7	-19	2.5
CC(=O)OC1COC(N2CCc3ccccc32)C(OC(C)=O)C1OC(C)=O (stereo unspecified)	-0.8%	-14	-14	-5.7	-1	0.4
CN(C)S(=O)(=O)c1ccc(NC(=S)NC(=O)Cc2ccccc2)cc1	1.1%	14	-1	-4.1	-1	0.2
Cc1cc(/C=C(\C#N)C(=O)NC2CCCCCC2)c(C)[nH]1	8.7%	-15	-9	-3.1	-27	1.8
Cc1cc(N2CCN(S(=O)(=O)c3ccc4c(c3)OCCO4)CC2)n2ncnc2n1	6.9%[38.3 µM]	-6	-1	2.3	1	0.3
CCOC(=O)N1CCC(NC(=O)CCc2c(C)nc3c(c(C)nn3-c3ccccc3)c2C)CC1	-0.3%	-6	7	-3.2	-6	0.1
Cc1ccc(-c2csc(NC(=O)C3=COCCO3)n2)cc1C	?	-1	-8	1.7	-4	1.1
CCc1ccc(-c2cc(N)n(-c3ccccc3)n2)cc1	-0.5%	-8	-1	-3.0	-2	-0.4
CCc1cccc(NC(=O)CN2CCCN(Cc3cccc(C)c3)S2(=O)=O)c1	0.6%	-14	·	·	·	1.7
COc1ccc(NC(=O)NCCN2CCN(c3ccc(C)cc3)CC2)c(Cl)c1	3.6%	·	-14	-4.2	-25	·
CC1=CC(C)C(C(=O)O)C(C(=O)O)C1 (stereo unspecified)	?	-15	5	2.8	-4	0.9
O=C(CNC(=O)c1ccccc1F)N/N=C/c1ccco1	0.5%	5	6	1.2	-28	0.1
Cc1ccc2cc(CN(C)C(=O)c3cccc(Cl)c3)c(=O)[nH]c2c1	-2.3%	2	·	·	·	-0.6
Cc1noc(C)c1NC(=O)N(C)C[C@H]1Oc2ccc(NC(=O)NC(C)C)cc2C(=O)N([C@H](C)CO)C[C@H]1C	0.4%	-1	-4	1.0	1	-0.3
O=C(NNC(=O)C1CCC(C(=O)NNC(=O)c2cccs2)CC1)c1cccs1 (stereo unspecified)	-0.3%	-3	12	-1.9	-1	0.0
Cc1ccc(/C=N/NC(=O)c2cccc(S(=O)(=O)Nc3cccc(Cl)c3)c2)o1	3.5%	10	17	-4.7	-2	0.2
COc1cc(CN2CCN(C(=O)c3cccc4ccccc34)CC2)cc(OC)c1O	1.3%	-7	-7	-5.0	-5	-0.4
O=C1CC(NCc2ccccc2F)C(=O)N1c1ccccc1 (stereo unspecified)	-0.1%[38.3 µM]	-12	-1	-1.6	5	-0.2
CN1C(=O)C(O)(CC(=O)c2ccncc2)c2ccccc21 (stereo unspecified)	0.1%	-6	3	-0.8	-17	1.3
O=C1c2ccccc2NC(c2ccccn2)N1NS(=O)(=O)c1ccccc1 (stereo unspecified)	-0.7%	-5	-6	2.5	-1	2.0
COC(=O)c1ccc2nc(-c3ccc(F)cc3)c(Cc3cccc(Cl)c3)n2c1	7.0%	·	7	·	·	0.9
COc1ccccc1C(=O)NC(=S)Nc1ccc(N2CCOCC2)c(Cl)c1	2.5%	0	1	5.2	14	0.9
Cc1ccccc1-n1c(SCC(=O)O)nc2sc3c(c2c1=O)CCCC3	-0.3%	-13	-2	-3.5	8	-0.1
COCCN(CCOC)c1ncnc2c1cnn2-c1ccc(Cl)cc1	4.3%[38.3 µM]	24	8	-2.8	-3	3.6
Cc1ccc(N=CC=C2OC(C)(C)C(C)(C)O2)c(C)c1	1.5%	42	6	-1.2	-7	-0.9
COc1ccc(CCNC(=O)c2ccc(Br)o2)cc1Br	0.3%	·	-10	·	·	-0.6
CC(C)(C)OC(=O)N1CCC2(CC1)Oc1ccc(Cl)cc1C(=O)C21CC(c2ccc(Cl)cc2)=NO1 (stereo unspecified)	-0.3%	32	1	-9.5	-3	-0.3
Cc1nc(-c2ccccc2)sc1-c1ccc(SCC(=O)NCc2ccccc2)nn1	0.9%	11	·	·	·	2.1
O=C(OCC(=O)c1ccccc1)C1=NN(c2ccccc2)C(=O)CC1	-1.8%	-9	-2	-3.9	-34	-0.5
CCO[C@H]1OC(C(=O)NCc2nc3ccccc3[nH]2)=C[C@@H](C)[C@@H]1CCCO	1.6%	10	1	-0.2	-90	-0.5
COC(=O)c1ccccc1NC(=O)NC1CCC(C)CC1 (stereo unspecified)	4.7%	11	4	0.0	-9	1.0
CSCC[C@H](NC(=O)C1CCCC1)c1nc2ccccc2[nH]1	0.1%	-1	-4	0.2	-10	-0.1
Cn1c(-c2ccc(Br)cc2)cnc1NCc1cccnc1	0.0%	27	-3	-4.8	-29	1.7
O=C(O)CNS(=O)(=O)c1ccc(Br)s1	0.4%	7	0	-3.9	-6	-0.7
CCOC(=O)c1ccc(NC(=O)C2(c3ccc(Cl)cc3)CCCC2)cc1	5.7%	0	3	-4.7	10	0.8

Of the compounds above, these contain two or more sulfur atoms.
SMILES	PINK1 expr mod	TRPML1 blocker	Six1-Eya2 blk	D2 ag	D2 potentiator	TRPML1 ag
CC(C)NC(=O)c1sc2nc(-c3cccs3)cc(-c3cccs3)c2c1N	-4.8%	-12	7	-23	0	-0.8
CN(C)S(=O)(=O)c1ccc(NC(=S)NC(=O)Cc2ccccc2)cc1	1.1%	14	-1	-4.1	-1	0.2
O=C(NNC(=O)C1CCC(C(=O)NNC(=O)c2cccs2)CC1)c1cccs1 (stereo unspecified)	-0.3%	-3	12	-1.9	-1	0.0
Cc1ccccc1-n1c(SCC(=O)O)nc2sc3c(c2c1=O)CCCC3	-0.3%	-13	-2	-3.5	8	-0.1
Cc1nc(-c2ccccc2)sc1-c1ccc(SCC(=O)NCc2ccccc2)nn1	0.9%	11	·	·	·	2.1
O=C(O)CNS(=O)(=O)c1ccc(Br)s1	0.4%	7	0	-3.9	-6	-0.7

The results go on.
SMILES	PINK1 expr mod	TRPML1 blocker	Six1-Eya2 blk	D2 ag	D2 potentiator	TRPML1 ag
CNc1ccc(C(=O)c2ccccc2C(=O)O)cc1[N+](=O)[O-]	-2.3%	6	11	5.9	-28	0.8
CC(C)(C)NC(=O)COC(=O)c1nsc(Cl)c1Cl	0.5%	23	1	-0.6	-23	2.3
Cc1ccc(C(=O)Nc2ccc(C(=O)NCC3CCCO3)cc2)cc1 (stereo unspecified)	0.4%	1	-1	-2.6	-15	-0.6
O=C(CC1N=C2c3ccccc3N=C(SCc3ccccc3F)N2C1=O)NCc1ccc2c(c1)OCO2 (stereo unspecified)	2.1%	4	·	·	·	0.9
CC1CC(=O)Nc2ccccc2S1(=O)=O (stereo unspecified)	0.1%	-9	-17	-1.4	1	-0.6
O=C(OCc1ccccc1Cl)c1ccc(-n2cnnc2)cc1	-3.8%[38.3 µM]	-2	-2	2.9	6	0.2
Cc1ccc(C)c(N2CCN(C(=O)c3cccn3-c3nnc(N4CCCCC4)s3)CC2)c1	1.1%	18	·	·	·	2.5
CC(C)Oc1ccccc1NC(=O)CSc1nccn1C	-2.7%&2.2%	-20&-3	-1	-4.5	0	-0.4&-0.8
CC(=O)c1cccc(-c2ccnc3c2CC(C(=O)N2CCN(C)CC2)O3)c1 (stereo unspecified)	-0.9%	25	7	4.9	-8	1.0
CCOC(=O)CSc1nc2sc3c(c2c(=O)n1-c1ccccc1)CCC(C(C)(C)C)C3 (stereo unspecified)	-5.3%	-26	·	·	·	0.6
Cc1ccc(CSCc2ccc(C(=O)NC3CC3)o2)cc1	-0.5%	-15	-5	9.0	-12	3.6
CCn1nc(C(=O)OCC(=O)c2ccc3c(c2)OCCO3)c2ccccc2c1=O	-0.6%	7	1	-1.7	-11	1.4
O=C(NCc1ccco1)c1nc2ccccc2s1	?	15	-1	-1.2	4	0.8
CC(C)(C)OC(=O)N1CCC(c2c(C(=O)N3CCc4ccccc4C3)cnn2-c2ccc(F)cc2)CC1	-1.2%	2	·	·	·	-0.3
O=S(=O)(/C(=C/c1ccc(C(F)(F)F)cc1)c1nc2ccccc2[nH]1)c1ccccc1	-3.9%	29	-12	-0.5	-13	0.4
COC(=O)c1ccc(C(=O)OC)c(NC(=S)N2CCN(c3ccc(F)cc3)CC2)c1	-0.8%	9	-10	-5.1	-1	-0.2
CC1CN(C(=O)COC(=O)c2ccc(F)cc2Cl)CC(C)O1 (stereo unspecified)	0.7%	-13	9	-2.0	-1	0.3
CCOc1ccc(C2Nc3cccc4cccc(c34)N2)cc1OC	1.1%	11	-29	3.8	?	-0.7
COC(=O)Cn1c(=O)c2c(nc3n2CCCN3CCc2ccccc2)n(C)c1=O	0.4%	14	-2	-0.8	7	1.1
COc1ccc(OCCN2CCC(C(=O)NC(c3ccc(C)cc3)c3ccccn3)CC2)cc1 (stereo unspecified)	0.3%	·	-6	-5.3	-20	-0.7
CCCCCSc1nc2c(c(=O)[nH]c(=O)n2C)n1C(C)C	0.6%	-8	1	-3.6	-4	0.0
O=C(Nc1ccccc1)N1CCCN(c2ccc(C(F)(F)F)cn2)CC1	1.1%	5	2	-4.3	-8	1.7
COc1ccc(S(=O)(=O)N2CCCCC2)cc1NCC(=O)Nc1ccc(C)cc1	0.3%	-17	-5	5.7	-1	0.3
Cc1ccc2cc3cc(C(=O)N4CCCCCC4)oc3nc2c1	0.1%	-10	-3	-0.8	7	-0.5
CC1(C(=O)NS(=O)(=O)c2cccc(Cl)c2)CCN1C(=O)CCc1ccccc1 (stereo unspecified)	-0.3%	·	17	-1.3	-8	0.3
Cc1ccc(S(=O)(=O)NNC(=S)Nc2ccc(Cl)cc2)cc1	2.3%	24	-1	-3.6	-9	0.4
Cc1oc(-c2ccccc2F)nc1CS(=O)(=O)CC(=O)NC1CCCC(C)C1C (stereo unspecified)	0.8%	7	-8	-3.5	-9	1.6
CN1CC=C2C(C#N)=C(N)C(C#N)(C#N)C(Cc3ccccc3)C2C1 (stereo unspecified)	18µM*	24	0	2.6	5	6.0
Cn1cc(Br)c(C(=O)N/N=C/c2cccc(OC3CSC3)c2)n1	3.0%	-2	-4	-4.6	-3	0.3
CCCN(CC(=O)Nc1ccccc1OC)C(=O)c1ccncc1	3.4%	21	2	-2.2	-5	0.1
Cc1cccc(NC(=O)Nc2ccc(C#N)cc2)n1	0.5%	-12	4	-1.8	-9	-0.3
CC(C)c1ccc(/C=C/C(=O)n2nnc3ccccc32)cc1	2.6%	-14	-6	-2.8	-15	0.6
O=C(Nc1cccc(S(=O)(=O)N2CCOCC2)c1)c1cccc(S(=O)(=O)N2CCCC2)c1	1.5%	-5	-1	1.4	2	-0.4
Cn1c(SCc2nc(-c3ccccc3)no2)nnc1-c1ccco1	-1.2%	-18	-2	-2.8	-6	-0.7
CCOc1ccc(OCCC(=O)OCC(=O)NC(C)c2ccccc2)cc1 (stereo unspecified)	-5.9%	-12	-3	0.6	-1	1.4
COCCCN=CC1=C(O)CC(C)(C)CC1=O	-1.8%[38.3 µM]	-12	6	-2.0	0	0.1
O=C(Nc1ccc(C(=O)N2CCOCC2)cc1)c1ccccc1	-0.6%	7	9	-0.2	1	1.5
